Bioassay records (PubChem BioAssay)
AF4-AF9 inh: inhibitors of human MLL-AF4/AF9 interaction. P42568. AlphaScreen, biotin-AF4 peptide binding to FLAG-AF9. inhibition, % at 10 µM. 0.47% of 350,000 active;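 active = every replicate reaching a set inhibition limit, whatever the replicate mean, cut at about 25% in these data; inconclusive = mean inhibition reaches that limit but some replicates miss it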;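 also: 0% = plate neutral control median and 100% = total signal loss; the record names both 10 and 1 µM as test concentration; the first replicate is given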
Target sequence (P42568 whole entry, looked up): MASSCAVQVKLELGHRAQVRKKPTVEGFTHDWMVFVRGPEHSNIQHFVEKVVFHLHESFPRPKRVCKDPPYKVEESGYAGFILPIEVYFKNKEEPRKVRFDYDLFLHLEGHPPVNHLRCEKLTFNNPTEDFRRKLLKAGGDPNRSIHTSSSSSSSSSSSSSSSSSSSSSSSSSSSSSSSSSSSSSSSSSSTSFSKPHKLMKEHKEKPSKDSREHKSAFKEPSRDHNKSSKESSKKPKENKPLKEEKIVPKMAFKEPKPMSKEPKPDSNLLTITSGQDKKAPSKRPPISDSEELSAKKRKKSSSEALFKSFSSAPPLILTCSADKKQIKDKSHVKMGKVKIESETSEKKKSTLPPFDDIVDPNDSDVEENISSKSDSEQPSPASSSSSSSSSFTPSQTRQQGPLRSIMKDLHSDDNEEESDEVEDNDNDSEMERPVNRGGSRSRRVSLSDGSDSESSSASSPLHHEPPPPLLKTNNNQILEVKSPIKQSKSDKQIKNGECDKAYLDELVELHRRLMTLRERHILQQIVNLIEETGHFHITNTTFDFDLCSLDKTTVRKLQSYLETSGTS
E coli growth: blocks Escherichia coli growth. OD600, 23 h; stronger effect = lower value. OD600 absorbance (concentration not given with the values). 0.21% of 330,000 active;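 active = OD600 absorbance below the run mean of sample wells minus 3.6 SD, in any replicate, cut at about 0.56 in these data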;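 also: stock transfer was 300 nL into about 60 µL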
UCH37 DUB inh: human UCH37 deubiquitinating enzyme inhibition; Q9Y5K5; purified proteasome/UCH37, Ub-AMC cleavage fluorescence; inhibition, % (no concentration beside the values); 0.33% of 330,000 active;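 active = mean of two replicates above 20%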;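 also: 0% = compound-free wells with enzyme and 100% = wells lacking proteasome; stock transfer was 100 nL into about 20 µL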
Target sequence (Q9Y5K5 whole entry, looked up): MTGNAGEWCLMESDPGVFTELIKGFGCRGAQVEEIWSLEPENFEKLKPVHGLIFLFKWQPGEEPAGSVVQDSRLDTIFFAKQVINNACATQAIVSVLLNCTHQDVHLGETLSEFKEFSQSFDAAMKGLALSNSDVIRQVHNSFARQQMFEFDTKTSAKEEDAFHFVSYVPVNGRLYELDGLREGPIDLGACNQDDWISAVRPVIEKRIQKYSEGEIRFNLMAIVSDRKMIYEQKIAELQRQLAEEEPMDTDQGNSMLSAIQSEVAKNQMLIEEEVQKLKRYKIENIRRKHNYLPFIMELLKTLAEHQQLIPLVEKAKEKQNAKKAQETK
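System: Proteasome-associated human UCH37 deubiquitinase; Input: 0.15 nM proteasome in added enzyme buffer; Also added: Ub-AMC substrate from 1 µM stock; Incubation: 30 min compound-proteasome preincubation then 25 min substrate reaction, room temperature; Detection: fluorescence, ex 355 nm, em 460 nm; Read-out: % inhibition of Ub-AMC cleavage fluorescence; Benchmarks: no-proteasome and no-compound wells.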
RanGTP-Imp inh: inhibitors of RanGTP-importin-beta interaction, primary screen, biochemical, FRET, CFP-Ran, YFP-importin-beta, homogeneous; cell-free CFP-Ran/YFP-importin-beta FRET ratio; inhibition, % (no concentration beside the values); 1.1% of 300,000 active; AID 2216;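 active = most replicates above 15%; inconclusive = exactly half above 15%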;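 also: 0% = DMSO wells and 100% = Ran loaded with GDP instead of GTP; wells of about 40 µL received 100 nL stock; the first replicate is given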
Vif A3G: HIV-1 Vif–A3G interaction blockers – biochemical, TR-FRET, GST-Vif 1-94, biotin-A3G peptide, dose response retest, primary screen (AID 1117319); 0.57% of 260,000 active; inhibition, %, or IC50 in µM where a hit was titrated; TR-FRET GST-Vif / biotin-A3G peptide binding; higher % means a stronger effect; test concentration not given here; strong numbers were not always called active;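 active = above the screen mean plus three standard deviations and confirmed in dose response; inconclusive = results disagree or hit not tested in dose response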;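 also: Vif residues 1-94 fused to GST binding biotinylated APOBEC3G peptide 110-148; 0% = full assay without inhibitor and 100% = GST in place of GST-Vif; retest series ran down from 100 µM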
HNF4A DNA FP: change in binding of human HNF4 alpha to DNA; P41235; HNF4a-FITC DNA binding, fluorescence polarization, 1 h; activity change, % at 10 µM; 0.3% of 360,000 active; in the data active = activity change above about 30%, passing the limit was not always enough;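 also: controls were the assay level and a saturating level of protein; the project sought stronger binding though the title names inhibitors; some compounds called inactive have numbers as strong as hits; positive values seem to mean higher polarization but the record does not say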
FGF22 binding: shifts melting point of recombinant human FGF22; Q9HCT0; recombinant FGF22 thermal shift, SYPRO orange fluorescence; percent of sucrose octasulfate shift, DMSO zero; calls only at 9.99 µM; AID 651658; 1.5% of 340,000 active;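 active = melting point raised past a set limit in the mean and every replicate; inconclusive = no clear call; three in four hits are not shown here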
Target sequence (Q9HCT0 whole entry, looked up): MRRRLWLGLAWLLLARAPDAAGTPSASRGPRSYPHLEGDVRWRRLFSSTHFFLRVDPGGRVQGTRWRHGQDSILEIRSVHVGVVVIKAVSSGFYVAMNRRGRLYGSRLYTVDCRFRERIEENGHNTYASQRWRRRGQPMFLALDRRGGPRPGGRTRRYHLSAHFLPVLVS
The depositor's hits bear a star; & = joins results of further samples. Some of the compounds tested; rates above refer to the full screens.

Results for Cc1ccc(C(=O)N2[C@@H]3CN(C)C(=O)[C@@]2(Cc2ccccc2)[C@H]2C(=O)N(Cc4ccccc4)C(=O)[C@@H]32)cc1 ?
AF4-AF9 inh: 0.2; UCH37 DUB inh: 4.5; HNF4A DNA FP: 0.4; FGF22 binding: inactive

Results for O=C([C@H]1O[C@@H](n2ccc(=O)[nH]c2=O)[C@H](O)[C@@H]1O)N1CCN(Cc2ccccn2)CC1 ?
AF4-AF9 inh: -0.2; HNF4A DNA FP: -1.2; FGF22 binding: inactive

How did Nc1nnc(SCC(=O)Nc2sc3c(c2C(=O)c2ccccc2)CCCC3)s1 do in these assays?
AF4-AF9 inh: 0.9; E coli growth: 0.69; UCH37 DUB inh: -0.5; RanGTP-Imp inh: 3.3; Vif A3G: 11%; HNF4A DNA FP: -1.2; FGF22 binding: inactive

What do the screens show for `O=C(COC(=O)c1c2c(nc3ccccc13)/C(=C\c1cccs1)CCC2)Nc1ccccc1Cl`?
AF4-AF9 inh: 4.5; E coli growth: 0.76; UCH37 DUB inh: -273; RanGTP-Imp inh: 3.2; HNF4A DNA FP: 4.1; FGF22 binding: inactive

Results for Cc1cc(S(=O)(=O)Nc2ccc(N(C)C)cc2)c(C)s1 ?
E coli growth: 0.74; UCH37 DUB inh: 2.7; RanGTP-Imp inh: 4.2; Vif A3G: 1%; HNF4A DNA FP: -0.2

Results for CCN1CCN(c2cc(C(C)(C)C)nc3c(-c4ccccc4)c(C)nn23)CC1 ?
E coli growth: 0.7; UCH37 DUB inh: -34; RanGTP-Imp inh: -1.1; Vif A3G: -1%; HNF4A DNA FP: -1.0

How did CCOc1ccccc1NC(=O)c1ccc(S(=O)(=O)N(C)c2ccccc2)cc1 do in these assays?
AF4-AF9 inh: -0.3; E coli growth: 0.71; UCH37 DUB inh: 5.4; HNF4A DNA FP: 0.0; FGF22 binding: inactive

Results for Cc1sc2ncnc(NCCCN3CCCC3=O)c2c1C ?
AF4-AF9 inh: -2.2; E coli growth: 0.67; UCH37 DUB inh: 1.3; RanGTP-Imp inh: inconclusive; Vif A3G: -4%; HNF4A DNA FP: 2.8; FGF22 binding: inactive

What do the screens show for `O=C(COC(=O)c1ccco1)Nc1ccc(Br)cc1`?
AF4-AF9 inh: -2.6; E coli growth: 0.62; UCH37 DUB inh: 1.5; RanGTP-Imp inh: 2.9; Vif A3G: -1%; HNF4A DNA FP: -5.0; FGF22 binding: inactive

Results for O=C(CCc1ccccc1)Nc1c(F)c(F)c(F)c(F)c1F ?
E coli growth: 0.74; UCH37 DUB inh: -1.7; RanGTP-Imp inh: -0.6; Vif A3G: -2%; HNF4A DNA FP: -6.9

What do the screens show for `Cc1ccc(SCC(=O)O/N=C(\N)c2ccncc2)cc1`?
AF4-AF9 inh: -1.0; E coli growth: 0.66; UCH37 DUB inh: -0.9; RanGTP-Imp inh: 0.1; Vif A3G: 8%; HNF4A DNA FP: -1.1; FGF22 binding: inactive

What do the screens show for `Cc1cc(C)c(S(=O)(=O)N2CCCOC2CNC(=O)C(=O)NCCCn2ccnc2)c(C)c1` (centres undefined)?
AF4-AF9 inh: 1.9; E coli growth: 0.69; UCH37 DUB inh: -1.9; RanGTP-Imp inh: -4.4; Vif A3G: 16%; HNF4A DNA FP: 5.1; FGF22 binding: inactive

Two records picked at random from the list so far:
Results for O=C(CCc1ccccc1)Nc1c(F)c(F)c(F)c(F)c1F ?
E coli growth: 0.74; UCH37 DUB inh: -1.7; RanGTP-Imp inh: -0.6; Vif A3G: -2%; HNF4A DNA FP: -6.9

What do the screens show for `Cc1cc(C)c(S(=O)(=O)N2CCCOC2CNC(=O)C(=O)NCCCn2ccnc2)c(C)c1` (centres undefined)?
AF4-AF9 inh: 1.9; E coli growth: 0.69; UCH37 DUB inh: -1.9; RanGTP-Imp inh: -4.4; Vif A3G: 16%; HNF4A DNA FP: 5.1; FGF22 binding: inactive

Following part
What do the screens show for `COc1ccc(NC(=O)C(c2ccc(OC)cc2)N(C)C(=O)CC2NC(=O)NC2=O)cc1` (centres undefined)?
E coli growth: 0.61; UCH37 DUB inh: 1.6; RanGTP-Imp inh: -0.4; Vif A3G: 7%; HNF4A DNA FP: -2.1

Results for C[C@H](CO)N1C[C@H](C)[C@@H](CN(C)C(=O)C2CCCCC2)OCc2cn(nn2)CCCC1=O ?
AF4-AF9 inh: -1.4&0.2; Vif A3G: 2%; HNF4A DNA FP: -2.5; FGF22 binding: inactive

How did CCc1ccc(CN2CCCC(CCC(=O)N3CCN(c4ccccn4)CC3)C2)o1 (centres undefined) do in these assays?
AF4-AF9 inh: -6.5; E coli growth: 0.69; UCH37 DUB inh: 0.6; RanGTP-Imp inh: 0.5; Vif A3G: 9%; HNF4A DNA FP: -3.8; FGF22 binding: inactive

What do the screens show for `Cc1ccc(NCCCCO)cc1C`?
AF4-AF9 inh: 3.7; E coli growth: 0.64; UCH37 DUB inh: 2.1; RanGTP-Imp inh: 6.8; HNF4A DNA FP: 1.6; FGF22 binding: inactive

Results for O=C(NC1CCCC1)C(c1ccccc1F)N(C(=O)Cc1cccs1)c1ccc2c(c1)OCCO2 (centres undefined) ?
AF4-AF9 inh: 4.4; E coli growth: 0.73; UCH37 DUB inh: 0.8; RanGTP-Imp inh: -4.9; Vif A3G: 6%; HNF4A DNA FP: 3.9; FGF22 binding: inactive

Results for O=C1OC(c2ccc3c(c2)OCO3)=N/C1=C\c1ccc(C(=O)O)cc1 ?
AF4-AF9 inh: -4.7; E coli growth: 0.67; UCH37 DUB inh: 2.4; RanGTP-Imp inh: 3.0; Vif A3G: 1%; HNF4A DNA FP: -27; FGF22 binding: inactive

What do the screens show for `CCOc1ccc2nc(SCC(=O)N(C)C3CCS(=O)(=O)C3)[nH]c2c1` (centres undefined)?
E coli growth: 0.7; UCH37 DUB inh: 0.5; RanGTP-Imp inh: 0.0; Vif A3G: 11%; HNF4A DNA FP: -0.8

Results for Cc1ccc(N2Cc3ccccc3C2=O)cc1 ?
AF4-AF9 inh: -2.2; E coli growth: 0.64; UCH37 DUB inh: 0.1; RanGTP-Imp inh: 2.1; HNF4A DNA FP: 0.4; FGF22 binding: inactive

What do the screens show for `Cc1occc1-c1nnc(SCC(=O)N2CCN(c3ccc(F)cc3)CC2)n1C`?
E coli growth: 0.75; UCH37 DUB inh: 2.3; RanGTP-Imp inh: 2.0; Vif A3G: 8%; HNF4A DNA FP: 0.1

How did COc1cccc(-n2nc(C(=O)O)c3ccccc3c2=O)c1 do in these assays?
E coli growth: 0.67; UCH37 DUB inh: 3.3; RanGTP-Imp inh: -3.2; Vif A3G: 4%; HNF4A DNA FP: -2.7

How did Cc1ccc(C)c(C(=O)COC(=O)CN2C(=O)C3C4CCC(C4)C3C2=O)c1 (centres undefined) do in these assays?
AF4-AF9 inh: -1.8; E coli growth: 0.61; UCH37 DUB inh: 1.1; RanGTP-Imp inh: 6.4; HNF4A DNA FP: 0.0; FGF22 binding: inactive

What do the screens show for `Cc1oc(-c2ccoc2)nc1CN(CC1CCC(=O)N1)C(C)C` (centres undefined)?
AF4-AF9 inh: -12; RanGTP-Imp inh: 6.4; Vif A3G: 12%; HNF4A DNA FP: 1.7

Results for Cc1cc(C)nc(/N=C(\N)Nc2ccc(C(C)C)cc2)n1 ?
AF4-AF9 inh: 4.5; E coli growth: 0.59; UCH37 DUB inh: 4.3; RanGTP-Imp inh: 3.7; Vif A3G: 1%; HNF4A DNA FP: 4.5; FGF22 binding: inactive

What do the screens show for `Cn1cccc1Cc1nnc(SCC(=O)Nc2ccccc2)n1-c1ccc(F)cc1`?
AF4-AF9 inh: 6.8; E coli growth: 0.74; UCH37 DUB inh: 1.5; RanGTP-Imp inh: -4.7; Vif A3G: inconclusive; HNF4A DNA FP: 4.8; FGF22 binding: inactive

Results for O=C(c1ccccn1)N(Cc1ccco1)C1(C(=O)NC2CCCC2)CCCCC1 ?
E coli growth: 0.68; UCH37 DUB inh: 3.4; RanGTP-Imp inh: 0.8; Vif A3G: -4%; HNF4A DNA FP: -4.0

What do the screens show for `COC(=O)c1cccc(NC(=O)CSc2ncn[nH]2)c1`?
E coli growth: 0.76; UCH37 DUB inh: 3.5; Vif A3G: -1%; HNF4A DNA FP: 3.4

Results for COc1ccc(Cn2c(C)nnc2-c2cnn(C)c2N)cc1 ?
AF4-AF9 inh: 0.4; E coli growth: 0.74; UCH37 DUB inh: 2.3; RanGTP-Imp inh: -2.9; Vif A3G: 3%; HNF4A DNA FP: -0.3; FGF22 binding: inactive

What do the screens show for `Nc1cc(-c2cccc(F)c2)nn1S(=O)(=O)c1cccc2nsnc12`?
AF4-AF9 inh: 11; E coli growth: 0.73; UCH37 DUB inh: 2.7; RanGTP-Imp inh: -0.3; Vif A3G: inconclusive; HNF4A DNA FP: 0.5; FGF22 binding: inactive

Results for CCNC(=O)c1ccc(-n2nc(C)cc2-c2ccccc2)cc1 ?
E coli growth: 0.69; UCH37 DUB inh: 2.4; RanGTP-Imp inh: 2.6; Vif A3G: 5%; HNF4A DNA FP: -0.4

What do the screens show for `COCCCNC(=O)c1ccccc1NS(=O)(=O)c1ccc(C)cc1`?
E coli growth: 0.71; UCH37 DUB inh: -0.3; RanGTP-Imp inh: 4.7; Vif A3G: 9%; HNF4A DNA FP: -0.7

Results for O=C(N/N=C\c1ccc(Cl)cc1Cl)c1sccc1-n1cccc1 ?
RanGTP-Imp inh: 7.5; Vif A3G: -1%; HNF4A DNA FP: 2.2

How did CCOC(=O)c1ccc(N2Cc3ccccc3C2=NC(=O)c2ccncc2)cc1 do in these assays?
AF4-AF9 inh: inconclusive; E coli growth: 0.73; UCH37 DUB inh: 6.2; Vif A3G: -5%; HNF4A DNA FP: -0.5; FGF22 binding: inactive

Results for Cc1cnc(NC(=O)CCc2ccccc2)s1 ?
AF4-AF9 inh: 0.1; E coli growth: 0.65; UCH37 DUB inh: 4.4; RanGTP-Imp inh: -0.1; HNF4A DNA FP: -4.6; FGF22 binding: inactive

Results for CC(=O)NC1=NN(c2ccccc2)C(=O)C1 ?
E coli growth: 0.7; UCH37 DUB inh: -0.7; RanGTP-Imp inh: 2.8; Vif A3G: 4%; HNF4A DNA FP: 0.9

Results for CCCc1nc2ccccc2c(=O)n1-c1ccc(C(=O)OCC)cc1 ?
AF4-AF9 inh: -0.3; E coli growth: 0.72; UCH37 DUB inh: 3.4; RanGTP-Imp inh: 0.3; HNF4A DNA FP: -0.8; FGF22 binding: inactive

How did COC(=O)c1ccsc1NC(=O)c1ccco1 do in these assays?
AF4-AF9 inh: -0.7; E coli growth: 0.73; UCH37 DUB inh: -3.8; RanGTP-Imp inh: -0.6; Vif A3G: -1%; HNF4A DNA FP: -1.9; FGF22 binding: inactive

How did O=C(Cn1cc(SCc2ccc(F)cc2)c2ccccc21)N1CCOCC1 do in these assays?
AF4-AF9 inh: 6.7; E coli growth: 0.67; UCH37 DUB inh: 3.5; RanGTP-Imp inh: 3.1; HNF4A DNA FP: -2.1; FGF22 binding: inactive

Results for O=C(COC(=O)c1ccc(Cl)cc1O)NC(=O)C1CCCCC1 ?
AF4-AF9 inh: -0.9; E coli growth: 0.68; UCH37 DUB inh: -19; RanGTP-Imp inh: 0.9; Vif A3G: 4%; HNF4A DNA FP: 0.4; FGF22 binding: inactive

What do the screens show for `CCN(CC)S(=O)(=O)c1ccc(NN=C2CCN(C(C)C)CC2)c([N+](=O)[O-])c1`?
AF4-AF9 inh: -0.9; E coli growth: 0.7; UCH37 DUB inh: 3.5; RanGTP-Imp inh: -1.6; Vif A3G: -13%; HNF4A DNA FP: 1.7; FGF22 binding: inactive
